SARS PLpro yeast: SARS-CoV PLP inhibition in yeast | S. cerevisiae expressing SARS-CoV PLpro, growth rescue; control for the full effect not named in the record | Potency, µM (top dose mostly 32.9 µM), for the others: top-dose activity, positive = growth rescue | AID 485353 | hit rate 0.19% among 330,000; further: 0% is about no effect; nearly all actives have a fitted effect of over 55% in size; growth read by luminescence after 48 h
MARV entry inh: blocks Marburg virus binding to or entry into cells; Marburg virus pseudotyped entry inhibition, cell reporter; control for the full effect not named in the record; about a third of the inactives were read at about 46 µM; Potency, µM (doses to about 37.8 µM), without a hit: top-dose activity change, negative = inhibition, usual class: inhibitors; hit rate 1.8% among 300,000; active = well fitted inhibition curve with a large enough effect; inconclusive = small, poorly fitted or top-dose-only effect, or effect the other way; inactive = flat fitted curve, though single readings scatter; tested in HEK293 cells; about a fifth of its hits are not listed in these tables; further: on the % scale 0 is the no-effect control and ±100 the full control effect; luciferase read-out
2A StopGo: lowers the luciferase signal of an FMDV 2A StopGo reporter; human cells with a luciferase reporter of 2A StopGo recoding; control for the full effect not named in the record; Potency, µM (titrated, usually from 57.9 µM), for inactives: at the top dose signal change, negative = less light; hit rate 1.2% among 410,000; AID 1159524; active = well fitted falling curve with a large enough effect; inconclusive = small, poorly fitted or top-dose-only effect; inactive = no such curve, though single readings can be large or run the other way; tested in HEK293T cells; further: on the % scale 0 is the no-effect control and ±100 the full control effect; nearly all actives have a fitted effect of over 45% in size; luciferase light after 4 h
Cruzain Triton: inhibitors of Trypanosoma cruzi cruzain with detergent; AID 1478; Potency, µM, without a hit: max response, negative = inhibition, usual class: inhibitors; P25779; purified cruzain, Z-FR-AMC fluorescence, 0.01% Triton; hit rate 0.43% among 200,000; active means well fitted curve in the direction sought with a large enough effect; inconclusive means small, poorly fitted or top-dose-only effect, or another doubt; inactive means no such curve, though single readings can be large; an effect the other way counts as inactive or inconclusive;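 further: plate controls were neutral wells for no effect and buffer without enzyme for full effect; nearly all actives have a fitted effect of over 40% in size; top concentration of the series not given in the record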
Target sequence (P25779 123-467 limits assumed): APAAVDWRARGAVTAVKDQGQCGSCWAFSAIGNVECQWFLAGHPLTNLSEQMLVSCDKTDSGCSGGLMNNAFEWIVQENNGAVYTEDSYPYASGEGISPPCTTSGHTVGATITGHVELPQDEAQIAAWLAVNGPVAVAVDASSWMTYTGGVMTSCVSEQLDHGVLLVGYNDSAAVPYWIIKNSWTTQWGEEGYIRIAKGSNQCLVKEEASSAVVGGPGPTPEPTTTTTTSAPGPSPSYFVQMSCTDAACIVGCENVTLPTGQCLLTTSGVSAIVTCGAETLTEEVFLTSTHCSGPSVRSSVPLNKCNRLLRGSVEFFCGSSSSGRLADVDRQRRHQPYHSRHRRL
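Steps: dispense cruzain (1.5 nM final) in acetate buffer pH 5.5 with DTT and 0.01% Triton X-100; pin-transfer compounds; incubate 15 min RT; add Z-FR-AMC (2 uM final); read fluorescence every 30 s, using the 60 s intensity change.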
Lassa entry inh: inhibitors of Lassa virus binding or cell entry; Lassa virus pseudotype entry inhibition, cell reporter; control for the full effect not named in the record; Potency, µM (doses to about 37.9 µM), for the others: top-dose activity change, negative = inhibition, hits mostly inhibitors; hit rate 1.2% among 300,000; AID 540256; active means well fitted inhibition curve with a large enough effect; inconclusive means small, poorly fitted or top-dose-only effect, or effect the other way; inactive means flat fitted curve, though single readings scatter; tested in HEK293 cells; further: on the % scale 0 is the no-effect control and ±100 the full control effect; nearly all actives have a fitted effect of over 50% in size; luciferase read-out
RE007 growth inh: less growth of the S. pombe RE007 Vpr strain. Potency, µM (doses to about 92.2 µM), for inactives: at the highest dose activity change, negative = less growth. hit rate 0.21% among 360,000. S. pombe RE007 Vpr strain, BacTiter-Glo ATP luminescence, 24 h; control for the full effect not named in the record; active = well fitted falling curve with a large enough effect; inconclusive = small, poorly fitted or top-dose-only effect; inactive = no such curve, though single readings can be large or run the other way;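 further: on the % scale 0 is the no-effect control and ±100 the full control effect; nearly all actives have a fitted effect of over 50% in size; the assay follows cell death caused by Vpr and the record does not say whether a fall means rescue or toxicity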
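Fission yeast RE007 carrying one integrated HIV-1 vpr copy, seeded at OD 0.01 in PMG+AL medium with 23 nL pinned compound. Grown 24 h at 30 degrees; viability read by BacTiter-Glo luminescence after 5 min.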
Cruzain inh noDet: blocks cruzain activity in detergent-free assay. purified cruzain, Z-FR-AMC fluorescence, no detergent. hit rate 2.3% among 200,000. Potency, µM, for inactives: max response, negative = inhibition, actives largely listed as inhibitors. P25779; active means well fitted curve in the direction sought with a large enough effect; inconclusive means small, poorly fitted or top-dose-only effect, or another doubt; inactive means no such curve, though single readings can be large; an effect the other way counts as inactive or inconclusive;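 further: plate controls were enzyme without inhibitor for no effect and buffer without enzyme for full effect; nearly all actives have a fitted effect of over 40% in size; top concentration of the series not given in the record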
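Detergent-free condition (0.00005% Triton X-100) in acetate buffer pH 5.5 with DTT. 1.5 nM enzyme and compound were pre-mixed 15 min, then 2 uM Z-FR-AMC substrate added; reaction progress from fluorescence change between first and third reads (60 s).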
NS1 function inh: influenza NS1 inhibition; S. cerevisiae slowed by influenza A NS1, growth recovery by OD600; Potency, µM (highest dose often 46.1 µM), for the others: at the highest dose activity, positive = more growth; AID 2326; hit rate 0.4% among 270,000; further: actives are rising curves; nearly all actives have a fitted effect of over 50% in size
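Growth recovery, yeast-based: influenza A NS1 expressed in S. cerevisiae causes slow growth, and suppressors are detected by OD600. The parent strain without NS1 is used as positive control.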
Starred values were filed as active, the others as inactive; ? = inconclusive; . = no result given; & = joins results of further samples; [ ] = dose if it differs, or a comment. Unless noted, the call rests on the fitted dose curve; in most records, active means well fitted rising curve with a large enough effect; inconclusive means small, poorly fitted or top-dose-only effect; inactive means no such curve, though single readings can be large or run the other way. Potency means the concentration at half of the fitted maximal effect.

The first three records, to show the layout:
(1) COc1cc(OC)c2c(c1)C(=O)OC2OC (stereo unspecified)
(2) COC(=O)NCC1(C)CC(NC(=O)OC)CC(C)(C)C1 (stereo unspecified)
(3) Cn1cccc1C(=O)OCC(=O)Nc1ccc2c(c1)OCO2
compound no.	1	2	3
SARS PLpro yeast	1%	3%	3%
MARV entry inh	.	5%	11%[46.1 µM]
2A StopGo	0%	-7%	34%[activator]
Cruzain Triton	.	-2.7%	.
Lassa entry inh	.	29%	8%
RE007 growth inh	12%	12%	1%
Cruzain inh noDet	.	10%	.
NS1 function inh	-3%	-2%	4%

The list itself, from the first entry:
(1) COc1cc(OC)c2c(c1)C(=O)OC2OC (stereo unspecified)
(2) COC(=O)NCC1(C)CC(NC(=O)OC)CC(C)(C)C1 (stereo unspecified)
(3) Cn1cccc1C(=O)OCC(=O)Nc1ccc2c(c1)OCO2
(4) COCc1cc(=O)n2[nH]c(C(C)(C)C)cc2n1
(5) Cc1ccc(NCc2ccncc2)c(Br)c1
compound no.	1	2	3	4	5
SARS PLpro yeast	1%	3%	3%	-1%	-1%
MARV entry inh	.	5%	11%[46.1 µM]	9%[46.1 µM]	-1%
2A StopGo	0%	-7%	34%[activator]	-2%	6%
Cruzain Triton	.	-2.7%	.	.	.
Lassa entry inh	.	29%	8%	-15%[46.1 µM]	?
RE007 growth inh	12%	12%	1%	0%	4%
Cruzain inh noDet	.	10%	.	.	.
NS1 function inh	-3%	-2%	4%	5%	2%

(6) Cc1nnc(SCc2ccccc2C#N)n1-c1ccccc1
(7) CCCCC(=O)Nc1ncc2c(n1)CC(C)(C)CC2=O
(8) COc1cc(OC)cc(C(=O)N2CCN(Cc3ccc4c(c3)OCO4)CC2)c1
(9) O=C(OCc1cc(=O)n2nc(C3CC3)sc2n1)c1ccc(F)cc1
(10) CCc1cc(=O)oc2cc(OCC(=O)N3CCC[C@H]3C(=O)O)ccc12
compound no.	6	7	8	9	10
SARS PLpro yeast	0%	5%	3%	.	5%
MARV entry inh	1%[46.1 µM]	?	.	.	.
2A StopGo	-8%	12%	-25%	2%	-13%
Cruzain Triton	-0.1%	1.5%	.	-1.0%	.
Lassa entry inh	-7%	-17%	.	?	.
RE007 growth inh	-13%	31%	-4%	.	3%
Cruzain inh noDet	5%	-3%	.	0%	.
NS1 function inh	0%	-5%	3%	.	4%

(11) Cc1cccc2nc(CSc3nc4ccc([N+](=O)[O-])cc4[nH]3)cn12
(12) Cc1nn2c(C(F)(F)F)cc(-c3ccc(OC(C)C)cc3)nc2c1C#N
(13) Cc1ccccc1N1C(=O)[C@@H]2Cc3ccccc3CN2C1=O
(14) CC(OC(=O)CNC(=O)c1ccc2c(c1)OCO2)C(=O)NCCC1=CCCCC1 (stereo unspecified)
(15) CCOc1ccc(NC(=O)Cn2c(CCC(=O)O)ccc2-c2ccc(Cl)cc2)cc1
compound no.	11	12	13	14	15
SARS PLpro yeast	0%	.	3%	?	.
MARV entry inh	-2%	0%[46.1 µM]	13%	6%	-8%[46.1 µM]
2A StopGo	?	-19%	-8%	-10%	-18%
Cruzain Triton	-3.4%	-0.5%	2.9%	-13%	-10%
Lassa entry inh	?	26%[46.1 µM]	6%	16%	-10%[46.1 µM]
RE007 growth inh	10%	.	8%	30%	.
Cruzain inh noDet	-30%	3%	-5%	-12%	14%
NS1 function inh	-6%	.	-7%	-8%	.

(16) COc1ccccc1CC1(C)NC(=O)N(CC(=O)N2CC(C)OC(C)C2)C1=O (stereo unspecified)
(17) Cc1nc2cccc(C)n2c(=O)c1Cl
(18) CC1CCC(NC(=O)COc2ccc(C(=O)c3ccccc3)cc2)CC1 (stereo unspecified)
(19) CN(CC(=O)Nc1nc2ccccc2s1)S(=O)(=O)c1ccc(Cl)cc1
(20) CCCn1c(N)c(C(=O)CSc2nnc(-c3c[nH]c4ccccc34)n2C2CC2)c(=O)[nH]c1=O
compound no.	16	17	18	19	20
SARS PLpro yeast	15%	5%	-6%	-8%	8%
MARV entry inh	21%[46.1 µM]	-12%	-9%	14%	2%
2A StopGo	6%	-14%	?	-27%	-5%
Cruzain Triton	6.4%	-2.1%	-6.2%	-6.2%	.
Lassa entry inh	1%	-1%	?	18%	11%
RE007 growth inh	0%	-20%	-6%	-13%	-5%
Cruzain inh noDet	9%	-7%	0%	-24%	.
NS1 function inh	5%	-1%	-13%	3%	.

(21) COc1ccc(/C=C(/NC(=O)c2ccc(C)cc2)C(=O)NCC2CCCO2)cc1 (stereo unspecified)
(22) O=c1c(N2CCc3ccccc3C2)csc2ccc(Cl)cc12
(23) CCOc1cc(C(=O)Nc2ccc3oc(-c4ccc(F)cc4Cl)nc3c2)cc(OCC)c1OCC
(24) Cc1ccc(-c2nn(CC(=O)N(C)C)c(=O)c3ccccc23)cc1S(=O)(=O)N(C)C
(25) O=C(NC1CCCCCCC1)c1cc(-c2ccccn2)nc2ccccc12
compound no.	21	22	23	24	25
SARS PLpro yeast	2%	.	.	3%	-3%
MARV entry inh	1%[46.1 µM]	.	.	?	19%[46.1 µM]
2A StopGo	1%	29%	-4%	-8%	-5%
Cruzain Triton	.	-6.1%	-2.1%	4.7%	.
Lassa entry inh	-16%	0%[46.1 µM]	-2%[46.1 µM]	-18%	2%
RE007 growth inh	13%	.	.	11%	-1%
Cruzain inh noDet	.	-11%	4%	4%	.
NS1 function inh	.	.	.	12%	.

(26) COC(=O)Cc1[nH]nc2c1C1(CCSCC1)C(C#N)=C(N)O2
(27) CC(C(=O)NCC1CCCO1)n1cccc1C(=O)c1ccccc1 (stereo unspecified)
(28) CC(C)Cc1ccc(C(C)C(=O)N2CCOCC2)cc1 (stereo unspecified)
(29) COC(=O)c1ccc(NC(=O)CCS(=O)(=O)c2ccc(Br)cc2)cc1
(30) COc1ccc(S(=O)(=O)N2CC(C)N(S(=O)(=O)c3ccc(OC)cc3)CC2C)cc1 (stereo unspecified)
compound no.	26	27	28	29	30
SARS PLpro yeast	4%	-7%	-6%	-3%	1%
MARV entry inh	-1%	0%	2%	14%&14%[46.1 µM]	6%
2A StopGo	.	2%	8%	-16%&3%	?
Cruzain Triton	2.5%	-0.5%	3.3%	-2.6%	-0.9%
Lassa entry inh	-10%	22%	-1%	14%	2%
RE007 growth inh	4%	2%	14%	-4%	-2%
Cruzain inh noDet	-19%	-2%	0%	-10%	12%
NS1 function inh	9%	15%	9%	.	7%

(31) COc1cc(OC)cc(-c2cc3nc(C)c(CCC(=O)O)c(C)n3n2)c1
(32) CC1CCCN(C(=O)/C(=C/c2ccco2)NC(=O)c2ccccc2)C1 (stereo unspecified)
(33) CCO/C(C)=N/n1c2nc3ccccc3nc2c2c(=O)n(Cc3ccccc3Cl)c(C)nc21
(34) COc1cc(Cl)c(C)cc1NC(=O)CCCn1c(=O)oc2ccccc21
(35) Cc1ccc(/C=C/S(=O)(=O)NCC(=O)OCC(=O)Nc2ccc(C(N)=O)cc2)cc1
compound no.	31	32	33	34	35
SARS PLpro yeast	-1%	-3%	-10%	-39%	-2%
MARV entry inh	-2%	0%	-5%	-9%	1%
2A StopGo	1.4µM*	-4%	-9%	0%	-18%
Cruzain Triton	0.3%	.	-4.0%	-5.4%	.
Lassa entry inh	.	-13%	-7%	?	14%
RE007 growth inh	-5%	-3%	24%	15%	10%
Cruzain inh noDet	?	.	7%	5%	.
NS1 function inh	2%	6%	-14%	-24%	.

(36) Cc1nc(Cl)sc1C(=O)Nc1ccc(Cl)cc1
(37) Cc1cc([N+](=O)[O-])ccc1NS(=O)(=O)c1ccccc1
(38) CCCCN1C(=O)/C(=C2/C=CC=CN2C)SC1=S
(39) CC(=O)Nc1ccc(S(=O)(=O)N(C)CC(=O)NC2=NCCS2)cc1
(40) COc1ccc(CNc2ccc3c(c2)ncn3-c2ccccc2OC)cc1
compound no.	36	37	38	39	40
SARS PLpro yeast	-10%	.	-7%	-3%	-7%
MARV entry inh	6%	?	?	-6%	?
2A StopGo	33%[activator]	-12%	.	-21%	.
Cruzain Triton	-1.6%	.	-12%	4.4%	-3.5%
Lassa entry inh	15%	13%[46.1 µM]	?	-2%	2%
RE007 growth inh	-3%	-6%	-6%	20%	2%
Cruzain inh noDet	-11%	.	-15%	-18%	?
NS1 function inh	-16%	.	-12%	-3%	-70%

(41) Cc1cccc2nc(CNC(=O)C3CCC(=O)N(Cc4ccccc4F)C3)cn12 (stereo unspecified)
(42) Cc1ccsc1CN(C(=O)c1oc2ccccc2c1C)C1CCS(=O)(=O)C1 (stereo unspecified)
(43) CCOC(=O)C1CCCN(Cc2c(Cl)cccc2Cl)C1 (stereo unspecified)
(44) N#Cc1nc(-c2cccs2)oc1NCc1ccco1
(45) Nc1cc2c(cc1N)-c1ccccc1C2
compound no.	41	42	43	44	45
SARS PLpro yeast	1%	.	.	-15%	.
MARV entry inh	-1%	?	?	14%	?
2A StopGo	-1%	-26%	-28%	.	5%
Cruzain Triton	.	-7.9%	1.2%	?	.
Lassa entry inh	7%	?	5%	12%	10%[46.1 µM]
RE007 growth inh	-6%	.	0%	-6%	?
Cruzain inh noDet	.	3%	-4%	?	.
NS1 function inh	6%	.	0%	-53%	.

(46) C/C=C/C(=O)Nc1ccc(N2CCN(c3ccc(C(F)(F)F)cn3)CC2)nc1
(47) COC(=O)c1ccccc1NC(=O)COC(=O)c1cccnc1
(48) C=CCN(CC=C)CC(O)Cn1c2ccccc2c2ccccc21 (stereo unspecified)
(49) CCOc1ccc(C(CC(=O)O)NC(=O)C(Sc2ccccc2)c2ccccc2)cc1 (stereo unspecified)
(50) Cc1cccc(CC(=O)NCCc2sc3nc(-c4ccc(F)cc4)nn3c2C)c1
compound no.	46	47	48	49	50
SARS PLpro yeast	-2%	11%	4%	-3%	.
MARV entry inh	.	?	8.2µM*	-11%[46.1 µM]	.
2A StopGo	-5%	-2%	.	-21%	24%
Cruzain Triton	.	5.5%	4.7%	.	-2.3%
Lassa entry inh	.	4%	?	12%	11%[46.1 µM]
RE007 growth inh	-14%	10%	-16%	26%	.
Cruzain inh noDet	.	-5%	9%	.	2%
NS1 function inh	-53%	-1%	-2%	.	.

High-throughput results: PubChem, National Center for Advancing Translational Sciences (NCATS)
